Screening results from PubChem BioAssay.
Ab BasE inh = blocks the Acinetobacter baumannii siderophore enzyme BasE; purified BasE, fluorescence polarization binding displacement; inhibition, % (concentration not given with the values); 0.1% of 84,000 active;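 active = both replicates above 25% with normal brightness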;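 also: 0% = negative plate control signal and 100% = positive plate control signal; stock transfer was 100 nL into about 30 µL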
LANA-nucl inh = inhibitors of KSHV LANA binding to nucleosomes. FITC-LANA1-23 / chicken nucleosome fluorescence polarization; hits give low values. z-score (concentration not given with the values). 0.3% of 51,000 active. AID 720717;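 active = both repeat wells score below -2 in polarization z-score versus plate sample wells, excluding overly bright wells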;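 also: 100 nL library stock added to about 30 µL; numbers are from one replicate; some results filed as inactive read as strong as hits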
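System – purified chicken nucleosomes with FITC-labelled LANA N-terminal peptide (1-23) · Amount – 240 nM purified chicken nucleosomes (480 nM peptide binding sites), final · Also added – 50 nM FITC-LANA1-23 probe · Medium – TEN-BT buffer, pH 7.5 · Incubation – compound with peptide–nucleosome mix 10–45 min at room temperature · Detection – fluorescence polarization, ex 480 nm, em 535 nm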
Starred values were filed as active, the others as inactive; . = no result given; & = joins results of further samples. Some of the compounds tested; rates above refer to the full screens.

nr | smiles | Ab BasE inh | LANA-nucl inh
1 | CC(C(=O)N1CCCc2ccccc21)N1CCN(C(=O)c2ccccc2)CC1 (stereo unspecified) | 1.3 | .
2 | O=C1N(O)C2(C=CCCC2)/C(=N/O)C12CCCCC2 (stereo unspecified) | 17 | -0.37
3 | CC1=Nn2c(nc3sc(C)c(C)c3c2=O)SC1 | 2.7 | -0.34
4 | CN1CCN(C(=O)c2ccco2)CC1 | -1.1 | -0.95
5 | Cc1cnc(C(=O)NCCc2ccc(S(=O)(=O)NC(=O)NC3CCCCC3)cc2)cn1 | 2.6&-1.9 | -0.16&0.16&-0.019&-0.67
6 | COC(=O)c1ccc(OC(=O)Cc2coc3cc(OC)ccc23)cc1 | 1.5 | .
7 | S=C(CN1CCCC1=S)NCCc1ccccc1 | 1.5 | .
8 | Cn1c(CNC(=O)c2ccccc2F)nnc1SCC(=O)N1CCN(c2ccccc2)CC1 | 1.2 | 0.16
9 | CCN1CCN(c2ccc(N3CCN(C(=O)c4cc(OC)c(OC)c(OC)c4)CC3)nn2)CC1 | 0.9 | -0.42
10 | CC1CN(Cc2c(O)ccc3c(=O)c(-c4ccccc4Cl)coc23)CC(C)O1 (stereo unspecified) | -0.7 | -0.74
11 | Cc1ccc(/C(C#N)=C\c2cc(C)n(C)c2C)cc1 | 1.6 | -1.1
12 | Cc1ccc(-n2c(SCc3nnc4n3CCC4)nnc2-c2ccccc2)cc1 | 4.1 | .
13 | O=C(COc1ccccc1)N1CCN(c2ccccc2F)CC1 | -1.2 | 2.5
14 | Cc1cc(Nc2ccccc2)n(CCOC(=O)COc2ccccc2)n1 | 0.9 | .
15 | O=C(c1cncc(Br)c1)N1CC=C(c2ccccc2)CC1 | 1.5 | .
16 | Cc1cc(C2=NN(C)C(=NCc3ccccc3)SC2)c(C)n1Cc1ccco1 | -1.9 | .
17 | N#Cc1cccc(NC(=O)C2SC(=Nc3ccccc3)C(C(=O)N3CCOCC3)=C2N)c1 (stereo unspecified) | -0.5 | .
18 | S=C(Nc1ccccc1)Nc1nc2ccccc2n1CCOc1ccc(Cl)cc1 | 1.6 | .
19 | CCOC(=O)c1oc2ccc(Br)cc2c1NC(C)=O | -2.3 | 1.3
20 | CO/C(N)=N/C(=S)Nc1cccc(C(F)(F)F)c1 | 0.9 | -2.1
21 | N=c1ccn2c(n1)O[C@@H]1C2O[C@H](CO)[C@H]1O (stereo partly specified) | 3.3 | 0.75
22 | CC(C)COC(=O)Nc1ccc2c(c1)OCO2 | -2.7 | 0.11
23 | CC(=O)N1CCN(C2CCN(CCc3ccccc3)CC2)CC1 | -0.5 | -0.74
24 | N#CCCn1c(SCC(=O)NCCSc2ccc(Cl)cc2)nc2ccccc21 | 0.0 | .
25 | O=C1O/C(=C\c2ccc(Cl)cc2Cl)c2ccccc21 | . | -1.4
26 | Cc1ccc(C)n1-c1ccc(C(=O)OC2CCOC2=O)cc1 (stereo unspecified) | 2.3 | .
27 | CCOC(=O)C1=C(C(F)(F)F)Nc2ncnn2C1c1ccc(OC)cc1 (stereo unspecified) | 0.7 | 1.1
28 | Cc1cc(NC(=O)COC(=O)CSc2ccccc2)no1 | 1.0 | .
29 | CC(OC(=O)CN1C(=O)c2ccccc2C1=O)C(=O)Nc1cccc(C#N)c1 (stereo unspecified) | 1.3 | .
30 | COc1ccc(NC(=O)CN(CC(=O)Nc2ccc(OC)cc2)C(C)(C)CO)cc1 | 3.5 | .
31 | CC(O)CNc1nc2ccccc2n1CC(=O)NCC(F)(F)F (stereo unspecified) | 2.6 | .
32 | Cc1cccn2c(=O)c3cc(C(=O)NCCN4CCOCC4)c(=N)n(C(C)C)c3nc12 | -1.7 | .
33 | NC(=O)c1ccccc1NC(=O)C(F)(F)F | 1.3 | .
34 | COc1ccccc1Nc1nnc(SCC(=O)N(C)Cc2cccs2)s1 | -1.0 | .
35 | Clc1ccc(CN2CCN(c3ccccc3)CC2)cn1 | . | 0.82
36 | CCOC(=O)c1c(C)[nH]c(C)c1C(=O)CO/N=C/c1ccco1 | -1.2 | .
37 | O=C1NC(=O)C2(CCCC2)N1 | 2.6 | .
38 | O=C1NC(c2ccc(Cl)cc2)Nc2ccccc21 (stereo unspecified) | -2.4 | -0.79
39 | CCC(C)N(CC)C(=O)C1C(=O)CC(C)(C)CC1=O (stereo unspecified) | 1.8 | -0.3
40 | CC(C)CC1Nc2ccc(C(=O)N3CCCCC3)cc2NC1=O (stereo unspecified) | 1.9 | 0.39
41 | c1ccc(CNCC2COc3ccccc3O2)cc1 (stereo unspecified) | -2.8 | 0.96
42 | CCc1cccc(CC)c1NC(=O)/C(C#N)=C/c1c(C)nn(-c2ccccc2)c1N1CCCC1 | -3.6 | .
43 | CCOC(=O)Cc1nnc(SCc2ccc(C#N)cc2)n1Cc1ccco1 | 1.2 | .
44 | O=C(CSc1ncccn1)NC(=O)Nc1ccc2c(c1)OCCO2 | -0.4 | .
45 | Cc1cccc(C(=O)N/C(=C/c2ccc(N(C)C)cc2)C(=O)O)c1 | 1.9 | .
46 | CCC(C)NC(N)=S (stereo unspecified) | 2.0 | .
47 | O=C(O)/C=C/C(=O)Nc1ccc(-c2nc3ccccc3o2)cc1 | 1.4 | -0.62
48 | CNNCc1ccc(C(=O)NC(C)C)cc1 | -2.3 | -0.043&-0.21&-0.094
49 | Cc1sc2nc(CN(C(=O)c3cccs3)C3CCCC3)[nH]c(=O)c2c1C | -1.7 | -1.5
50 | O=C(O)c1ccccc1N=Nc1c(O)c2ccccc2oc1=O | 1.2 | -0.16
51 | CN(C)c1cccc(C(=O)OCC(=O)Nc2ccccc2Cl)c1 | 2.1 | .
52 | CC(=O)N1Cc2ccccc2CC1C(=O)Nc1ccc(F)cc1C (stereo unspecified) | -0.5 | .
53 | Cc1cc2ccccc2n2c(SCC(=O)O)nnc12 | 1.1 | -0.87
54 | CSc1nc2cc(C)nn2c(-c2ccccc2Cl)c1C#N | 1.7 | .
55 | COC(=O)c1nnn(-c2nonc2N)c1CN1CCC(Cc2ccccc2)CC1 | 0.0 | 0.14
56 | Cc1[nH]c2ccccc2c1SCc1nnc(SCc2ccc(Cl)cc2)n1C | 0.6 | .
57 | Cc1ccc(C)n1CCc1c[nH]c2ccccc12 | . | 0.61
58 | O=C1NC(Cc2c[nH]c3ccccc23)C(=O)N1Cc1ccc(Cl)cc1 (stereo unspecified) | -0.5 | .
59 | Cc1[nH]nc2c1C1C(C2)C1(C)C (stereo unspecified) | 0.1 | 1.6
60 | CCC(=O)Nc1nnc(-c2ccc3c(c2)CCCC3)o1 | -2.1 | 0.076

5 structures already listed, ordered by formula weight, rising.
nr | smiles | Ab BasE inh | LANA-nucl inh
22 | CC(C)COC(=O)Nc1ccc2c(c1)OCO2 | -2.7 | 0.11
3 | CC1=Nn2c(nc3sc(C)c(C)c3c2=O)SC1 | 2.7 | -0.34
25 | O=C1O/C(=C\c2ccc(Cl)cc2Cl)c2ccccc21 | . | -1.4
15 | O=C(c1cncc(Br)c1)N1CC=C(c2ccccc2)CC1 | 1.5 | .
42 | CCc1cccc(CC)c1NC(=O)/C(C#N)=C/c1c(C)nn(-c2ccccc2)c1N1CCCC1 | -3.6 | .

Carrying on.
nr | smiles | Ab BasE inh | LANA-nucl inh
61 | O=C(NC1CCN(Cc2ccccc2)CC1)C1CCCN(S(=O)(=O)c2cccc3nonc23)C1 (stereo unspecified) | -0.9 | -0.12
62 | CNC(=O)c1cc(Br)cc2c1OCC2 | -2.0 | .
63 | O=C(NC(NC(=O)c1ccco1)c1ccc(Br)cc1)c1ccco1 | -1.5 | -0.38
64 | CN(C)c1nc(Nc2ccccc2)nc(N(C)C)n1 | 2.9 | 0.5
65 | O=C(O)CN1CCN(Cc2ccc(F)cc2Cl)C1=O | -0.9 | -1.1
66 | Cc1nn(C)c(C)c1NC(=O)CSc1nccc(-c2ccc(Cl)cc2)n1 | 0.3 | -0.24
67 | O=C(c1cc2ccccc2o1)N(Cc1c(F)cccc1Cl)C1CC1 | -1.0 | .
68 | COc1ccc(Cn2c(O)c(N=O)c3ccccc32)cc1 | 0.0 | 2.4
69 | COCC(C)N=C1NN=C(c2ccc(O)cc2O)CS1 (stereo unspecified) | -4.2 | .
70 | O=C(Cn1nnc2ccccc2c1=O)N1N=C(c2cccs2)CC1c1cccs1 (stereo unspecified) | -1.2 | .
71 | O=C(O)CNCC(O)Cn1c2ccccc2c2ccccc21 (stereo unspecified) | -1.6 | 1.4
72 | Cc1ccc(SCC(=O)NN)cc1 | -1.5 | .
73 | O=C1CC(c2ccc(F)cc2)CC2=C1C=Nc1ccccc1N2 (stereo unspecified) | 4.5 | -0.28
74 | CCc1nc2ccccc2n1CC(=O)N(C(C)CC)C1CCS(=O)(=O)C1 (stereo unspecified) | -1.1 | .
75 | C[C@H](NS(=O)(=O)c1ccccc1F)C(=O)OCc1ccccc1F | 0.0 | .
76 | Cc1ccccc1C(=O)Nc1cccc(-c2cn3ccccc3n2)c1 | -1.6 | .
77 | O=C(/C=C/c1ccccc1)Nn1cnc2c(cnn2-c2ccccc2)c1=O | 1.4 | -1.2
78 | Cc1cccc(NS(=O)(=O)c2cccc(C(=O)N3CCN(C)CC3)c2)c1 | -0.5 | .
79 | COc1ccc2cc(-c3nc(-c4cccs4)cs3)c(=O)oc2c1 | -0.9 | -0.78
80 | COc1ccccc1NC(=O)c1cc(Sc2nncn2C)nc2ccccc12 | -2.5 | .
81 | CCOc1ccccc1N=Nc1c(C)[nH]n(C(N)=S)c1=O | 0.0 | 0.18
82 | C=CCNC(=O)COc1ccc(-n2cnnn2)cc1 | 2.4 | .
83 | c1ccc(-n2c(Sc3ncnc4c3oc3ccccc34)nnc2C2COc3ccccc3O2)cc1 (stereo unspecified) | 1.1 | .
84 | Cc1noc(C)c1CSc1nc2ccccc2nc1NS(=O)(=O)c1ccc(Cl)cc1 | 1.0 | .
85 | CCN1C(=O)c2ccccc2S(=O)(=O)c2ccc(C(=O)NCC(OC)OC)cc21 | 4.8 | -0.64
86 | COC(=O)C1Cc2ccccc2CN1C(=O)CSc1nc(C)cs1 (stereo unspecified) | 2.2 | .
87 | COc1ccc(CNC(=O)C(C)Sc2nc(N)cc(N)n2)cc1 (stereo unspecified) | -0.5 | .
88 | O=C(O)c1ccccc1SC1CC(=O)N(c2ccc(N3CCCCC3)cc2)C1=O (stereo unspecified) | 2.2 | -1.1
89 | C=CCN(CC=C)C(=O)C[n+]1cccc(C(N)=O)c1 | 2.4 | .
90 | OC(CN1CCCCC1)CN1c2ccccc2Sc2ccccc21 (stereo unspecified) | -0.3 | .
91 | COc1cccc(OC)c1C(=O)NCC#N | 1.1 | -0.44
92 | O=C(CCCN1C(=O)C(c2ccccc2)Oc2cccnc21)NC1CCN(Cc2ccccc2)CC1 (stereo unspecified) | -1.7 | 0.62
93 | CC1CN(C(=O)Cn2cc(C(F)(F)F)cc(Cl)c2=O)CC(C)O1 (stereo unspecified) | -4.5 | .
94 | CC(=O)OC(C(=O)Nc1cccc(C)n1)c1ccccc1 (stereo unspecified) | 1.5 | .
95 | COC(=O)/C=C1/N/C(=N/c2nc3ccccc3s2)NC1=O | 1.4 | -1.2
96 | CCOC(NC(=O)Nc1ccc(Br)cc1)(C(F)(F)F)C(F)(F)F | -0.7 | .

Single records, from the list above. Screens in order: Ab BasE inh | LANA-nucl inh
Entry for `O=C(O)c1ccccc1SC1CC(=O)N(c2ccc(N3CCCCC3)cc2)C1=O` (stereo unspecified) = 2.2 | -1.1
Entry for `OC(CN1CCCCC1)CN1c2ccccc2Sc2ccccc21` (stereo unspecified) = -0.3 | .
Entry for `O=C(CCCN1C(=O)C(c2ccccc2)Oc2cccnc21)NC1CCN(Cc2ccccc2)CC1` (stereo unspecified) = -1.7 | 0.62

Later entries:
nr | smiles | Ab BasE inh | LANA-nucl inh
97 | OC(CN1CCCCC1)C(F)(F)F (stereo unspecified) | . | 0.64
98 | O=S(=O)(NC1CCN(Cc2c(F)cccc2Cl)CC1)c1ccc(C(F)(F)F)cc1 | 1.3 | .
99 | CNc1ccccc1-n1ccc(-c2ccccc2)n1 | 2.3 | -0.2
100 | c1ccc2c(N3CCCCC3)nc(N3CCCCC3)nc2c1 | 1.7 | .
101 | O=C1CCC/C(=N\Nc2ccccc2)C1 | 3.0 | -0.13
102 | Cc1nn(Cc2ccccc2)c(Cl)c1C(=O)OCc1nnc(-c2ccc(Cl)cc2)o1 | -0.6 | .
103 | CC(Nc1nnnn1-c1ccccc1)c1ccccc1 (stereo unspecified) | -0.4 | .
104 | O=C(NCC1CCCCC1)NC1CCCN(c2cnccn2)C1 (stereo unspecified) | -1.0 | -0.76
105 | CCSc1nnc2ccc(-c3ccncc3)nn12 | 3.1 | 0.11
106 | CCOC(=O)N1CCN(S(=O)(=O)c2ccc(C)c(C)c2)CC1 | 1.0 | -0.34
107 | O=C(COC(=O)c1ccc(F)c(S(=O)(=O)N2CCCCC2)c1)NC1CC1 | -3.6 | .
108 | O=C1CSc2ccc(C(=O)OCCCn3c(=O)[nH]c4ccccc43)cc2N1 | 0.4 | .
109 | O=C1CCC(=O)N1c1c(F)c(F)nc(N2CCCCC2)c1F | -0.4 | .
110 | C=CCN1C(=O)C(=O)/C(=C(\O)c2ccccc2)C1c1ccccc1 (stereo unspecified) | -4.9 | 0.78
111 | Cc1ccc2oc(=O)c3cc(C(=O)NCc4ccc(C)o4)sc3c2c1 | -0.2 | 0.94
112 | Cc1ccc(C)c(N2CCN(CCCNC(=O)c3cn[nH]c3C3CCNCC3)CC2)c1 | -1.2 | .
113 | COc1ccc(Cc2nnc(SCC3CC3)n2-c2ccc(F)cc2)cc1OC | 0.0 | .
114 | COc1ccc(NC(=O)c2cc3nc(C(F)F)cc(C(F)F)n3n2)cc1OC | 1.6 | -0.23
115 | O=C(O)CNC(=O)c1ccc(S(=O)(=O)N2CCCC2)cc1 | 4.0 | -1.5
